Assay outcomes (PubChem)
GLA inh pH 4.5 = blocks human alpha-galactosidase A at pH 4.5; P06280; purified enzyme, 4-MU-alpha-Gal fluorescence, pH 4.5; activity change, negative = inhibition, % at 105 µM; 230,000 tested, under 10 active; inconclusive = small, poorly fitted or top-dose-only inhibition, or a rising curve; inactive = flat fitted curve, though single readings scatter; no compound was filed as active;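 note: 0% = full activity with enzyme and -100% = basal without enzyme; dose as in the result columns while the protocol names 77 µM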
Rango release inh = prevents RanGTP from dissociating the Rango-importin beta complex; 0.071% of 340,000 active; AID 540253; Potency, µM (highest dose often 46.1 µM), for inactives: top-dose activity change, negative = inhibition; O95149+P62826; Biochemical FRET Rango-importin beta, RanGTP-induced dissociation; active means falling FRET ratio curve, often poorly fitted, with flat reads before Ran was added; inconclusive means other falling curves, or compound fluorescence or quenching; inactive means flat or rising ratio curve;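 note: potency is the fitted concentration of half-maximal effect; % of control where 0% means no effect; nearly all actives have a fitted effect of over 45% in size; -100% = wells without RanGTP and RCC1; the record marks most hits as doubtful in a second field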
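Recombinant Rango FRET biosensor (EYFP–snurportin 1 IBB–cerulean CFP10) at 0.1 uM premixed with 0.25 uM importin beta in PBS, 1 mM DTT, 0.02% Tween-20, 0.1% BSA. Compound added 5 min; RanGTP-RCC1 (0.6 uM Ran, 2 mM GTP, 0.2 uM RCC1) then triggers release, read at 45 min.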
Rango complex inh = inhibitors of Rango-importin beta complex formation; AID 540263; 0.031% of 340,000 active; Potency, µM (doses to about 92.2 µM), for inactives: at the top dose inhibition of complex formation; Q14974; Rango CFP/YFP FRET sensor + importin beta, 45 min; active = rising FRET ratio curve, often small or poorly fitted; inconclusive = mostly compound fluorescence or quenching in the first reads; inactive = flat curves in all reads;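 note: potency is the fitted concentration of half-maximal effect; 0% = DMSO wells and 100% = buffer wells lacking importin beta; nearly all actives have a fitted effect of over 15% in size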
Target sequence (Q14974 whole entry, looked up): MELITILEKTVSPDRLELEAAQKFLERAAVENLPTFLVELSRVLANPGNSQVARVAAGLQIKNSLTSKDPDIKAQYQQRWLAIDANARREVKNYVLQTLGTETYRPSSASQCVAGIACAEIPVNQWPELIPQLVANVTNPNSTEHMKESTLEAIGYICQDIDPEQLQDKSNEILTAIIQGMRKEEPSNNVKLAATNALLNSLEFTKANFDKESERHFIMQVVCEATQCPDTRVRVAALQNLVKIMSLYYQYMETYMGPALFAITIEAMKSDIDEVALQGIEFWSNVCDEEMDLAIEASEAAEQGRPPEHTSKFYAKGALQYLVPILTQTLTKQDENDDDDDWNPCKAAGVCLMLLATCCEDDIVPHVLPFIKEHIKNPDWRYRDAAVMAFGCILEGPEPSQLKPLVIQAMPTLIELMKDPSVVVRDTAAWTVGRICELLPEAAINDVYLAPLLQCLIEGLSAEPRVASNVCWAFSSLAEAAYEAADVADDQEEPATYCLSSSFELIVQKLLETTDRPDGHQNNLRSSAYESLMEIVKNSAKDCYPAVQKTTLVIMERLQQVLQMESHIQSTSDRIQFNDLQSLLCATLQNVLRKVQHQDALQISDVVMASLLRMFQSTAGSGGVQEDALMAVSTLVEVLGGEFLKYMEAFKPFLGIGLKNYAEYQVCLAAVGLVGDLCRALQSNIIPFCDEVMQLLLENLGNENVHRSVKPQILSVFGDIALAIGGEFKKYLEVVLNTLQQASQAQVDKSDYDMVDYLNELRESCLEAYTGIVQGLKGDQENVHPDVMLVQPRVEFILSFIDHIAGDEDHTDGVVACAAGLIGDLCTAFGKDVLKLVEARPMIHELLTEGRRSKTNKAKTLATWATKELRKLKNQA
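Inhibition scored from the CFP 486 nm/YFP 530 nm FRET ratio 45 min after adding 0.125 microM importin beta to 50 nM Rango biosensor preincubated 5 min with compound (room temperature, PBS with DTT, Tween-20, BSA). No-importin wells as positive control.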
miR-21 reporter = raises the signal of a miR-21 reporter; HeLa miR-21 FLuc reporter, luciferase, 48 h; Potency, µM (series often up to 38.3 µM), inactives show at the highest dose reporter change, positive = more light; 340,000 tested, under 10 active; AID 2288; active = well fitted rising curve with a large enough effect; inconclusive = small, poorly fitted or top-dose-only effect; inactive = no such curve, though single readings can be large or run the other way;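 note: % of control where 0% means no effect; miR-21 action dims this reporter so a rising signal means less miR-21 action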
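HeLa miR-21-FLuc reporter line, endogenous miR-21; 2000 cells/well in DMEM/10% FBS; compound titration up to ~40uM final, 48 h, 37 degree Celsius; luciferase detection reagent, 15 min lysis, CCD luminescence.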
* marks the source's active call; other numbers are inactive results; ? = inconclusive; . = not tested or not shown; & = joins results of further samples; [ ] = another dose, or the depositor's remark. Not all compounds are listed; rates above refer to the full screens.

#	Molecule	GLA inh pH 4.5	Rango release inh	Rango complex inh	miR-21 reporter
1	CCOC(=O)C1(CC2CCCCO2)CCN(C(=O)Nc2ccc(C(=O)OC)cc2)CC1 (configuration not stated)	-2	-1%	0.8%	-1%
2	O=C1c2ccc(Oc3cccc([N+](=O)[O-])c3)cc2C(=O)N1c1ccccn1	2	1%	1.4%	-8%
3	Cc1ccccc1-n1nc(C)c2c(C(=O)NN)cc(-c3ccncc3)nc21	5	2%	3.6%	-2%
4	CCOC(=O)N1CCN(Cc2ccccc2F)CC1	7	6%	0.2%	-3%
5	CCn1c(COc2ccc3c(c2)OCO3)nnc1SCC(=O)O	-10	19%	-1.3%	0%[7.66 µM]
6	CN(C)C(=O)c1cc(C(=O)c2ccc(F)cc2C(F)(F)F)c[nH]1	.	-4%	2.7%	2%
7	CCOc1ccc2nc(NC(=O)CSc3nnnn3C3CCCCC3)sc2c1	-12	?	?	-20%
8	COc1ccc(C(C(=O)NC(C)(C)C)N(C(=O)Cn2nnc3ccccc32)c2cccc(C(C)=O)c2)cc1O (configuration not stated)	-1	14%	-0.8%	-2%
9	COc1cc(C(=O)OCCN2CCCCC2)ccc1O	-14	-6%	-2.3%	0%
10	CCOC(=O)c1cc(C#N)c(C)nc1N(CC)CC	6	6%	0.3%	-15%
11	O=C(Nc1ccc(Br)cc1)C1CCN(C(=O)c2ccco2)CC1	.	-10%	0.5%	-4%
12	CCn1cc(CN2CCC(n3nccc3NC(=O)Cc3ccccc3)CC2)c(C)n1	.	-5%	-1.9%	-2%
13	CC(C)(C)NC(=O)Cn1c(SCC(=O)NCc2cccs2)nc2ccccc21	8	1%	-1.4%	-1%
14	O=C(/C=C1\NC2(CCCC2)Cc2ccccc21)C(=O)N/N=C/c1ccc(O)c(O)c1	8	-23%	0.1%	7%
15	COc1cc(NC(=O)CN2c3cccc4cccc(c34)S2(=O)=O)cc(OC)c1OC	-5	-15%	-7.2%	21%
16	COc1cc(S(=O)(=O)N2CCCCC2)ccc1NC(=O)c1ccncc1	.	19%	-2.2%	-3%
17	CCS(=O)(=O)Nc1cccc(C2=NN(C(C)=O)C(c3cccs3)C2)c1 (configuration not stated)	-7	2%	2.3%	-6%
18	Cc1cc(Cl)cc(C)c1OCCNCc1ccccc1	.	9%	-0.1%	-1%
19	COc1ccccc1NC(=O)CNC(=O)Cn1cnc2sc(C)c(C)c2c1=O	.	12%	1.2%	0%
20	O=C(/C=C/c1ccc(Br)cc1)c1ccc(NC(=O)c2ccco2)cc1	1	-10%	0.1%	-26%
21	CCOC(=O)c1cccc(NC(=O)CCCn2c(=O)c3cccn3c3cccnc32)c1	.	24%	-1.1%	-6%
22	O=C(CCCCn1cnc2c(=S)nc[nH]c21)Nc1ccc(C(=O)O)cc1	.	-16%	1.6%	.
23	COc1cc(NC(=O)c2cnc(NCc3ccccc3)nc2C)cc(OC)c1OC	.	4%	3.0%	17%
24	CCCCn1c(N)c(N(CC)C(=O)c2ccncc2)c(=O)[nH]c1=O	.	1%	-1.3%	.
25	Cc1cccc(C)c1NC(=O)CN(C)C(=O)C1=COCCO1	.	-12%	3.0%	.
26	O=C(c1ccc(Br)cc1)N(c1ccccn1)C1CCCCC1	-12	-3%	2.4%	-3%
27	CC(=O)Nc1ccc(Nc2ccccc2)cc1	-1	0%	3.3%	-21%
28	CN(Cc1ccccc1)C(=C(Cl)Cl)/C(=C1/NCCN1C)[N+](=O)[O-]	2	-5%	-0.9%	0%
29	CC(C)(C)c1ccc(CNC(=O)C2CCCN2C(=O)Nc2ccccc2)cc1 (configuration not stated)	.	5%	-1.5%	5%
30	CCC(C(=O)OCC(=O)Nc1c(Cl)cccc1Cl)c1ccccc1 (configuration not stated)	-9	13%	0.7%	-1%
31	Cc1ccc(NC(=O)C(c2ccccc2)c2ccccc2)nc1	.	4%	4.2%	12%
32	CC(=O)Nc1cccc(OCC(O)Cn2cnc3ccccc32)c1 (configuration not stated)	2	1%	-2.4%	-5%
33	COc1ccc(C(=O)/C=C/c2ccc(OC)c(CN3CCOCC3)c2)cc1	-6	-18%	-1.0%	28%
34	NC(=O)Cc1nc2scc(-c3ccccc3)c2c(=O)[nH]1	6	-28%	?	1%
35	CC(=O)OC1COC(n2c(O)c(N=NC(N)=S)c3ccccc32)C(OC(C)=O)C1OC(C)=O (configuration not stated)	.	-6%	0.3%	-1%
36	CCCn1c(SCC(=O)Nc2nnc(CC)s2)nnc1-c1ccncc1	2	16%	0.5%	-5%
37	CC(=O)Nc1ccc(S(=O)(=O)N2CCCC2C(=O)Nc2ccc(F)cc2)cc1 (configuration not stated)	.	-6%	-0.4%	4%
38	Cc1ccc(S(=O)(=O)N2CCN(C(=O)CN3CCOCC3)C2C(C)C)cc1 (configuration not stated)	0	8%	-1.3%	-5%
39	Cc1ccc(NC(=O)c2sc(Cl)nc2-c2ccccc2)cc1	-16	-12%	0.1%	1%
40	COCCn1c(=NC(=O)CN2C(=O)CCC2=O)sc2cc(S(N)(=O)=O)ccc21	1	-5%	2.1%	1%
41	Cc1cc(OCC(=O)Nc2ccccc2N2CCOCC2)c(C(C)C)cc1Cl	.	?	-1.5%	.
42	CCN(/C=N/c1sc2c(c1C#N)CCCCC2)CC	-6	-12%	0.2%	-64%
43	COc1ccc(Cl)cc1N(CC(=O)N/N=C/c1ccc(OCC(N)=O)cc1)S(C)(=O)=O	10	5%	0.9%	-1%
44	CCOC(=O)Cn1ccc(NC(=O)COc2ccc(F)cc2)n1	.	-11%	-5.5%	-1%
45	O=S(=O)(c1cccc2cccnc12)N1CCN(Cc2ccc3c(c2)OCO3)CC1	3	-23%	-6.3%	-21%
46	N#Cc1c2n(c3c(=O)n(Cc4ccccc4Cl)cnc13)CCCC2	3	-1%	4.5%	-9%
47	Cc1cccc(-n2c(N)c(C(=O)NCCN3CCOCC3)c3nc4ccccc4nc32)c1	?	?	?	-10%
48	COc1ccc(NC(=O)COC(=O)c2ccc(OCc3ccccc3Cl)c(OC)c2)c(OC)c1	3	-7%	-1.1%	-1%
49	CC(C)(C)C(=O)CN1C(=O)NC2(CCCc3ccccc32)C1=O (configuration not stated)	.	13%	0.7%	1%
50	COc1ccc(CCNC(=O)C(=O)NCCC2CCCCN2S(=O)(=O)c2cccs2)cc1 (configuration not stated)	.	-2%	-1.7%	.

Next part.
#	Molecule	GLA inh pH 4.5	Rango release inh	Rango complex inh	miR-21 reporter
51	Cc1ccc(NC(=O)/C=C/C(=O)O)c(NC(=O)c2ccccc2)c1	.	-4%	3.5%	0%
52	Cc1csc(CN(C)C(=O)C2CCC(=O)N(CCCc3ccccc3)C2)n1 (configuration not stated)	.	6%	-1.9%	0%
53	COC(=O)c1c(NC(=O)CSc2nnc(Cn3nnc4ccccc43)n2C)sc(C)c1C	4	-3%	-1.2%	-5%
54	CCOc1ccc2oc(C(=O)NC3CC(C)(C)NC(C)(C)C3)c(C)c2c1	-2	0%	-0.8%	-8%
55	Cc1cc2c(cc1C)C(c1ccsc1)CC(=O)N2 (configuration not stated)	5	7%	-2.2%	13%
56	CC(C)c1cc(C(=O)O)n[nH]1	5	2%	0.9%	-1%
57	CCc1nnc(NC(=O)C2CCN(c3nccc(C)n3)CC2)s1	-1	2%	-0.4%	-6%
58	CC(O)CSc1nc2c(c(=O)[nH]c(=O)n2C)n1CC(O)COc1ccccc1 (configuration not stated)	-9	-6%	-3.0%	-10%
59	O=C(CNC(=O)c1nc[nH]c1C(=O)N1CCc2ccccc2C1)OCc1ccccc1	.	2%	?	11%
60	Cc1ccc(C2=NO[C@@](CC(=O)O)(C(=O)Nc3ccc4c(c3)OCCO4)C2)cc1	.	6%	2.6%	-33%
61	COc1ccc(OCCCC(=O)Nc2cccc([N+](=O)[O-])c2)cc1	-7	-8%	0.4%	-7%
62	Cc1nc(N)sc1C(=O)NN	-3	-2%	-1.4%	-25%
63	CC(C)(C)NC(=O)NC(=O)COC(=O)C1CCN(S(=O)(=O)c2cccs2)CC1	.	-5%	2.8%	.
64	O=C(NC1CCSc2ccccc21)c1cccc(S(=O)(=O)N2CCOCC2)c1 (configuration not stated)	.	-4%	6.7%	.
65	Cn1c(CCNC(=O)c2ccco2)nc2ccccc21	.	34%	-1.0%	.
66	Cc1ccc(CNC(=O)C2CCC(=O)N2C(C)C)cc1 (configuration not stated)	.	?	0.1%	1%
67	CCOc1ccc(N2C(=O)CC(Sc3nc(O)c(CC)c(=O)[nH]3)C2=O)cc1 (configuration not stated)	.	-11%	-3.0%	.
68	COC(CNC(=O)C(=O)Nc1cc2c3c(c1)CC(=O)N3CCC2)OC	.	-10%	-1.2%	-8%
69	CC1(C)CC(=O)C2=C(C1)Nc1ccccc1NC2c1cccc(F)c1 (configuration not stated)	.	-14%	0.9%	1%
70	COc1ccc(NC(=O)C(NC(C)=O)C(=O)NCc2ccccc2OC)cc1 (configuration not stated)	0	2%	-2.2%	-2%
71	Cc1cc(C)c(NC(=S)N(CCN(C)C)C(C)c2cccnc2)c(C)c1 (configuration not stated)	1	5%	3.7%	-6%
72	CC(=O)Oc1ccc(C(=O)Nc2ccccc2C(=O)NCC(C)C)cc1	-9	2%	-6.1%	-2%
73	COCCN(C(=O)COC(=O)CSc1ccc2ccccc2c1)c1c(N)n(Cc2ccccc2)c(=O)[nH]c1=O	.	1%	-1.6%	.
74	COc1ccccc1NS(=O)(=O)c1cc(N)ccc1N1CCCCC1	-2	15%	?	-3%
75	O=C(NNC1CC(=O)N(c2ccccc2)C1=O)c1ccco1 (configuration not stated)	7	-10%	-0.9%	-3%
76	Cc1cccc2cc(C#N)c(SCC(=O)NCc3cccs3)nc12	-6	-4%	-2.9%	-4%
77	Cc1ccc(NC(=O)NC2(C(=O)NCc3ccco3)CCCCC2)cc1	-9	-5%	-1.5%	-3%
78	O=C(NCCNC(=O)c1cc(Cl)ccc1Cl)c1cnccn1	.	3%	-0.1%	6%
79	CC1(C)CC(=O)C=C(Nc2ccccc2C#N)C1	.	-22%	?	6%
80	O=C(Cn1cc([N+](=O)[O-])ccc1=O)NCC(=O)Nc1ccc(F)c(F)c1F	.	15%	0.9%	.
81	C=CCSc1n[nH]c(-c2ccc(OCCCC)cc2)n1	-5	4%	-0.2%	-47%
82	NCCc1c(C(=O)O)[nH]c2ccc([N+](=O)[O-])cc12	-4	-2%	-5.6%	-4%
83	COc1cc2ccccc2cc1C(=O)NC(=S)Nc1cccc(C(=O)O)c1	-5	17%	0.9%	-62%
84	CCO[C@H]1OC(C(=O)Nc2ccccc2)=C[C@@H](c2coc3ccccc3c2=O)[C@@H]1CCCO	4	-16%	-4.4%	-2%
85	CCCCNc1nc2c(c(=O)n(Cc3ccccc3)c(=O)n2C)n1C	.	-15%	0.9%	2%&-1%
86	COc1cc(NC(=O)C2CCN(c3cnccn3)CC2)cc(OC)c1	.	-4%	4.9%	-16%&-1%
87	C/C(=N\NC(=O)c1cccc(F)c1)c1cccc(NC(=O)c2ccc(F)cc2)c1	5	0%	0.4%	-20%
88	COc1ccc(CCNC(=O)c2ccc(CNS(=O)(=O)c3cc(C)ccc3C)cc2)cc1OC	0	-15%	?	24%
89	CN(C)S(=O)(=O)c1cccc(NC(=O)c2cccc(NS(=O)(=O)c3ccccc3)c2)c1	.	-6%	0.7%	26%
90	O=C(CCc1nnc(CCC2CCCCC2)o1)NCCc1cccnc1	-17	-1%	5.9%	6%
91	CCC(=O)NC(C)C(c1cccs1)N1CCOCC1 (configuration not stated)	.	14%	5.3%	.
92	CCN1CCN(c2ccc(S(=O)(=O)N3CCOCC3)cc2NC(=O)C(C)Oc2ccc(F)cc2)CC1 (configuration not stated)	.	-6%	-1.4%	.
93	COCCCn1nnnc1SCC(=O)N1CCCC1	4	24%	-1.4%	-4%
94	COc1cc(OC)cc(C(=O)OCC(=O)Nc2ccc3[nH]c(=O)[nH]c3c2)c1	.	19%	4.5%	.
